Bioassay records: PubChem BioAssay, ICCB-Longwood Screening Facility, Harvard Medical School
GIV-Gai inh = blocks GIV peptide binding to rat Galpha-i3; Galpha-i3/FITC-GIV peptide fluorescence polarization, 90 min; hits give low values; scaled: aluminum fluoride 0%, vehicle 100%; hit rate 0.42% among 210,000; percent of control (FP), % (concentration not given with the values); AID 1224905; P08753;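 active = replicate mean at 85% of control or lower, very high polarization wells dropped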;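 also: wells of about 15 µL received 100 nL stock; the first replicate is given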
Target sequence (P08753 whole entry, looked up): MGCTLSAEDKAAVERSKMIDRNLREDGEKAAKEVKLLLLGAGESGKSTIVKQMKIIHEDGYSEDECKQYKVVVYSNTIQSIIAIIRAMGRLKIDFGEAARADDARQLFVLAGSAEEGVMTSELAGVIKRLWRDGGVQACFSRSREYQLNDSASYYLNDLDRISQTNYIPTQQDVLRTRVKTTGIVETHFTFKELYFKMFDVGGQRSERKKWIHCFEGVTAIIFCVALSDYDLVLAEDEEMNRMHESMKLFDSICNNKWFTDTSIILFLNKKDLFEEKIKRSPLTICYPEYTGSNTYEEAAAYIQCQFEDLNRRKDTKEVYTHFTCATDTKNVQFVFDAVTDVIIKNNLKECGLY
HCMV NEC inh = cytomegalovirus nuclear egress complex inhibition; HTRF UL50-UL53 interaction, normalized percent inhibition; inhibition, % (test concentration not listed); hit rate 0.15% among 190,000; AID 1918969;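 active = both replicates at 50% or more, plus weaker picks with an unusually low signal ratio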;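 also: stock transfer was 100 nL into about 20 µL; 0% = negative control wells and 100% = wells with untagged competitor protein; inactives centre near -12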
Sa growth inh = blocks Staphylococcus aureus growth; relative growth, % (test concentration not listed); S. aureus RN4220 growth, OD600, 20 h, 42 °C; hits give low values; hit rate 0.53% among 170,000;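 active = growth at 42 °C up to 50% and 20 or more points under that at 30 °C, or under 10% at both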;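 also: 300 nL library stock went into each well; scaled to the means of positive and negative controls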
Sa growth inh second temp = further read-out of Sa growth inh, marked with its call; relative growth, %; measured here: growth at 30 °C;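 optical density after 20 h as mean of two plates; 100% = untreated growth and lower means inhibition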
* = called active by the depositor; · = not tested or not shown; & = joins results of further samples.

(1) Cc1ccc(S(=O)(=O)N(CC(=O)c2ccccc2)c2nc3nc(C)cc(C)n3n2)cc1
(2) O=C(O)c1ccccc1Nc1ccccc1F
(3) Cc1ccc(-c2cc(C(=O)NCc3cnn(C)c3C)c3cc(Br)ccc3n2)cc1
(4) O=C(NC1CCCCC1)c1cc2n(n1)CCCN(Cc1cccc(F)c1)C2=O
(5) Cc1cccc(C=Nc2ccc(-c3nc4ccccc4o3)cc2)c1O
entry no. | 1 | 2 | 3 | 4 | 5
GIV-Gai inh | 112 | 98 | 110&109 | 103 | 95
HCMV NEC inh | -34 | -10 | -21&-31 | -8 | -18
Sa growth inh | · | 81 | 122 | · | 115
Sa growth inh second temp | · | 76 | 89 | · | 100

(6) CCOC(=O)c1cnc2c(c(C)nn2C)c1Sc1cccc(Cl)c1
(7) O=C(NC1CCCCC1)c1ccc(Cn2c(=S)[nH]c3ccccc3c2=O)cc1
(8) CC(C)NC(=O)CN1CCN(c2ccc(NC(=O)C3CCC3)c(C(=O)O)c2)CC1
(9) CSc1ccc(Cl)c(C(=O)OCC(=O)C(C)(C)C)c1
(10) CCOC(=O)c1c(-c2ccc(C)cc2)csc1NC(=O)c1nc(S(=O)(=O)CC)ncc1Cl
entry no. | 6 | 7 | 8 | 9 | 10
GIV-Gai inh | 99 | 99 | 99 | · | 109
HCMV NEC inh | -1 | · | -13 | -4 | 10
Sa growth inh | 98 | 124 | · | 97 | ·
Sa growth inh second temp | 94 | 86 | · | 100 | ·

(11) Cc1ccc(C(=O)C2C(=O)N(c3ccccc3)C(=O)N(c3ccccc3)C2=O)cc1
(12) COc1ccc(C(CCN)c2ccccc2)cc1 (centres undefined)
(13) C[N+]1(C2CCC3CCC2C3O)CCCCC1 (centres undefined)
(14) COC(=O)c1ccccc1SC(=O)c1ccc(Cl)c(Cl)c1
(15) COC(=O)CSc1ncc2c(n1)-c1ccccc1N(Cc1cccc(F)c1)S2(=O)=O
entry no. | 11 | 12 | 13 | 14 | 15
GIV-Gai inh | 102 | 104 | 98 | 99 | 106
HCMV NEC inh | -14 | -5 | · | -30 | ·
Sa growth inh | 100 | 122 | 124 | 108 | 84
Sa growth inh second temp | 68 | 94 | 101 | 90 | 85

(16) COc1ccc(-c2ccnc3[nH]n(-c4ccccc4)c(=O)c23)cc1
(17) COc1cccc(Sc2nc3ccccc3n3c(=O)n(CC(=O)NC(C)C)nc23)c1
(18) Cc1csc2nc(CN(C)c3ccccc3)cc(=O)n12
(19) O=c1c2ccccc2nnn1CSc1ccc2c(c1)OCCO2
(20) Cc1cc(N)n(-c2ncnc3scc(-c4ccc(C(C)C)cc4)c23)n1
entry no. | 16 | 17 | 18 | 19 | 20
GIV-Gai inh | 104 | 108 | 101 | · | ·
HCMV NEC inh | -12 | -19 | -5 | -18 | 1
Sa growth inh | 104 | · | · | 100 | 96
Sa growth inh second temp | 87 | · | · | 91 | 103

(21) CN(C)CCCNc1oc(/C=C/c2ccc(F)cc2)nc1C#N
(22) CN(CC(=O)N1CCCC1)C(=O)c1ccc(N2CCNCC2)c(NS(C)(=O)=O)c1
(23) O=C(O)CCCC(=O)Nc1cc(C(F)(F)F)cc(C(F)(F)F)c1
(24) Cc1c(N2CCN(C(=O)c3cc4cc(Cl)ccc4[nH]3)CC2)c(=O)n(C)c(=O)n1C
(25) COc1ccc(C2NC(=S)NC(C)=C2C(=O)Nc2ccccn2)cc1OC (centres undefined)
entry no. | 21 | 22 | 23 | 24 | 25
GIV-Gai inh | 100 | 100 | 102 | 103 | 100
HCMV NEC inh | -92 | -16 | 0 | -33 | -23
Sa growth inh | 109 | · | 101 | · | 84
Sa growth inh second temp | 90 | · | 72 | · | 74

(26) CCOC(=O)c1cnc2cc(Cl)c(OC)cc2c1Nc1ccc(Br)cc1C
(27) Cc1ccc(OCc2cc(=O)n3c4c(sc3n2)CCCC4)cc1C
(28) CCc1ccc2oc(=O)cc(CN(CC)CCO)c2c1
(29) CCOC(=O)c1noc2ncnc(Nc3cccc(C(F)(F)F)c3)c12
(30) Cc1ccc(NC(=O)c2c(C)noc2-c2cc(C)on2)cc1
entry no. | 26 | 27 | 28 | 29 | 30
GIV-Gai inh | 100 | 103 | 105 | 104 | 103
HCMV NEC inh | 12 | -27 | -24 | · | 1
Sa growth inh | 81 | 107 | 95 | 107 | 104
Sa growth inh second temp | 95 | 89 | 82 | 88 | 82

(31) COCCN(C(=S)Nc1c(C)cccc1C)C(C)c1cccnc1 (centres undefined)
(32) O=C(Cn1nc2n(Cc3ccccc3)c(=O)c3ccccc3n2c1=O)NC1CCCCC1
(33) CC(C)c1ccc(Nc2c(-c3ccc(N(C)C)cc3)nc3ncccn23)cc1
(34) CNC(=O)COC(=O)c1cc(F)c(F)cc1Cl
(35) COc1ccc(OC)c(C2C(C#N)=C(N)N(c3cc(-c4ccccc4)[nH]n3)C3=C2C(=O)CCC3)c1 (centres undefined)
entry no. | 31 | 32 | 33 | 34 | 35
GIV-Gai inh | 98 | 99 | 114 | · | 104
HCMV NEC inh | · | -16 | -21 | 6 | -8
Sa growth inh | 103 | · | · | 96 | 91
Sa growth inh second temp | 97 | · | · | 90 | 93

(36) Cc1ccc(Cl)cc1NS(=O)(=O)c1cn(C)cn1
(37) NC(=O)NC12CC3CC(CC(C3)C1)C2
(38) NC(=O)C1CCN(c2ncnc3c2cnn3-c2cccc(Cl)c2)CC1
(39) Cc1ccc(S(=O)(=O)N2Cc3ccccc3CC2C(=O)N(C)C)cc1 (centres undefined)
(40) CC(C)(C)OC(=O)N1CCC(c2c(C(=O)NCc3ccccc3)cnn2-c2ccc(F)cc2)CC1
entry no. | 36 | 37 | 38 | 39 | 40
GIV-Gai inh | 105 | · | 102 | 97 | 108
HCMV NEC inh | 2 | -4 | · | -42 | ·
Sa growth inh | · | 89 | 113 | 115 | 103
Sa growth inh second temp | · | 97 | 86 | 76 | 103

(41) CC1CCc2c(sc3nnn(Cc4cccc(C(=O)OC(C)C)c4)c(=O)c23)C1 (centres undefined)
(42) O=C1C=CC(=NS(=O)(=O)c2ccc(F)cc2)C=C1
(43) COc1ccc(F)cc1S(=O)(=O)Nc1cccc(-c2ccc(N3CCCCCC3)nn2)c1
(44) CC(C)(C)C(=O)Cn1c(NCCO)nc2ccccc21
(45) COc1ccc(C2=NN(c3nc(C)cs3)C(c3ccc(OC)c(OC)c3)C2)cc1OC (centres undefined)
entry no. | 41 | 42 | 43 | 44 | 45
GIV-Gai inh | 99 | 104 | 105 | · | 98
HCMV NEC inh | -36 | -23 | · | 3 | -73
Sa growth inh | 95 | 81 | 109 | 102 | ·
Sa growth inh second temp | 86 | 83 | 78 | 91 | ·

(46) C/C(=N\NC(=Nc1ccccc1)c1ccccn1)c1ccccn1
(47) COC(=O)c1ccc(NC(=O)c2cc(-c3cccc(OC)c3)nc3ccccc23)cc1
(48) Cc1cccc(N2CCCn3c2nc2c3c(=O)n(C)c(=O)n2C)c1
(49) CCN(C(=O)CSc1nc(N)nc(N)n1)C1=CCCC1
(50) COc1ccc(C(CNC(=O)NC(C)(C)C)N2CCN(C)CC2)cc1 (centres undefined)
entry no. | 46 | 47 | 48 | 49 | 50
GIV-Gai inh | 100 | 102 | 93 | · | 107
HCMV NEC inh | 0 | -7 | · | -11 | 7
Sa growth inh | 50 | · | 101 | 101 | 105
Sa growth inh second temp | 37 | · | 94 | 94 | 98

Overlap with the part before: four compounds; new compounds follow.
(47) COC(=O)c1ccc(NC(=O)c2cc(-c3cccc(OC)c3)nc3ccccc23)cc1
(48) Cc1cccc(N2CCCn3c2nc2c3c(=O)n(C)c(=O)n2C)c1
(49) CCN(C(=O)CSc1nc(N)nc(N)n1)C1=CCCC1
(50) COc1ccc(C(CNC(=O)NC(C)(C)C)N2CCN(C)CC2)cc1 (centres undefined)
(51) O=C(NCc1ccccc1)c1cc(-c2cccc(Cl)c2)on1
(52) O=C(c1cnc2ccc(F)cc2c1Nc1cccc(F)c1)N1CCCCC1
(53) COc1ccc(NC(=O)CN(C)S(=O)(=O)c2cccc3nsnc23)cc1
(54) Cn1c(=O)c2c(ncn2CC(=O)N2CCSC2=NCCc2ccccc2)n(C)c1=O
(55) Cc1ccc(NC(=O)c2cc(-c3ccc4c(c3)OCO4)on2)cc1C
entry no. | 47 | 48 | 49 | 50 | 51 | 52 | 53 | 54 | 55
GIV-Gai inh | 102 | 93 | · | 107 | 100 | 95 | 109 | · | 102
HCMV NEC inh | -7 | · | -11 | 7 | -9 | -23 | -99 | 8 | -26
Sa growth inh | · | 101 | 101 | 105 | 109 | · | 110 | 97 | 81
Sa growth inh second temp | · | 94 | 94 | 98 | 96 | · | 84 | 95 | 83

(56) S=C(NCC1CC1)Nc1ccc(Cl)cc1
(57) CCN(CC(=O)NCc1cccs1)C(=O)Cc1c(C)noc1C
(58) O=C(N/N=C1/CCc2ccccc21)C1CC1
(59) O=c1cc(-c2ccc(F)cc2)nc(SCc2nc(-c3cccc(C(F)(F)F)c3)no2)[nH]1
(60) COc1ccc2[nH]cc(CCNC(=O)c3ccc(NC(=O)C4=CSCCO4)cc3)c2c1
entry no. | 56 | 57 | 58 | 59 | 60
GIV-Gai inh | 97 | · | · | 94 | 99
HCMV NEC inh | -29 | -16 | -16 | · | -40
Sa growth inh | 82 | 77 | 91 | 97 | ·
Sa growth inh second temp | 68 | 94 | 89 | 85 | ·

(61) Cc1cc(C)nc(Sc2ccc(S(=O)(=O)C(F)F)cc2S(=O)(=O)C(F)F)n1
(62) Cc1cc(C)cc(N=C2NC(=O)/C(=C\c3cc([N+](=O)[O-])cc([N+](=O)[O-])c3O)S2)c1
(63) Clc1cc(CNCc2ccccc2CN2CCOCC2)cc2c1OCCCO2
(64) O=C1CSc2ccc(S(=O)(=O)N3CCC(C(=O)NC4CCCC4)CC3)cc2N1
(65) COc1ccc(S(=O)(=O)N2CCc3ccccc32)cc1C(=O)NC(C)(C)C
entry no. | 61 | 62 | 63 | 64 | 65
GIV-Gai inh | · | 128 | · | 103 | ·
HCMV NEC inh | -15 | -48 | -12 | 1 | -22
Sa growth inh | 97 | · | 88 | · | 82
Sa growth inh second temp | 91 | · | 96 | · | 88

(66) CCCn1c(CCC(=O)Nc2cc(OC)cc(OC)c2)nc2cccnc21
(67) COc1ccccc1N1CCN(C(=O)C(C)Oc2ccnc3c(C)ccc(C)c23)CC1 (centres undefined)
(68) CC(C)=CC1C(C(=O)Nc2ccc(Cl)cn2)C1(C)C (centres undefined)
(69) O=C(ON=C1CCC2(CC1)OCCO2)c1cccc(C(F)(F)F)c1
(70) Cc1nc(S(=O)(=O)N2CCC(C(=O)NCc3ccccc3Cl)CC2)cn1C
entry no. | 66 | 67 | 68 | 69 | 70
GIV-Gai inh | 102 | 102 | 109 | 102 | 105
HCMV NEC inh | -36 | -23 | -4 | -16 | 4
Sa growth inh | 103 | 87 | 114 | 99 | ·
Sa growth inh second temp | 80 | 93 | 93 | 96 | ·

(71) CC(C(=O)N1CCCC1)N1CCN(S(=O)(=O)c2ccc3ccccc3c2)CC1 (centres undefined)
(72) Cc1noc(-c2ccccc2)c1NC(=O)Nc1ccccc1
(73) CC1=C(c2ccc(C)c(C)c2)S(=O)(=O)N(Cc2ccc(C(=O)NCc3ccc(C)cc3)cc2)C1=O
(74) CCOC(=O)C1=C(N)OC2=C(C(=O)CC(c3ccccc3)C2)C1c1cccnc1 (centres undefined)
(75) CN(C)S(=O)(=O)c1ccc(-c2csc(=Nc3ccccc3)n2CCN2CCOCC2)cc1
entry no. | 71 | 72 | 73 | 74 | 75
GIV-Gai inh | · | 99 | 98&100 | 110 | 104
HCMV NEC inh | -32 | -37 | -34&8 | -6 | -46
Sa growth inh | 103 | 77 | 100 | · | 88
Sa growth inh second temp | 96 | 79 | 87 | · | 84

(76) Cc1cc(=O)oc2ccc(OCC(=O)N3CCOCC3)cc12
(77) COc1ccc(-n2nc3c(N4CCC(C(=O)NC5CCCCC5)CC4)nnc(C)c3c2C)cc1
(78) COc1cc2nc(C3CCC3)n(NC(=O)c3ccccc3C)c(=O)c2cc1OC
(79) COC(=O)c1ccc(C(=O)OC)c(NC(=O)c2nn(-c3ccc(C)cc3)c(=O)cc2OC)c1
(80) CCOC(=O)C(C)Oc1cccc2c(=O)n(CC(=O)Nc3ccc4c(c3)OCCO4)ccc12 (centres undefined)
entry no. | 76 | 77 | 78 | 79 | 80
GIV-Gai inh | · | 104 | 101 | 106 | 100&102
HCMV NEC inh | -4 | · | 12 | 6 | -27&3&51
Sa growth inh | 95 | 103 | 99 | · | 88
Sa growth inh second temp | 95 | 91 | 87 | · | 71

(81) CCOC(=O)CC1(c2ccccc2)CCOC(C)(C)C1 (centres undefined)
(82) Cc1ccc2c(CC(=O)Nc3ccc(S(=O)(=O)N4CCCCC4C)cc3)coc2c1 (centres undefined)
(83) Cc1ccc(-c2cc3nc(C(F)(F)F)cc(C(F)(F)F)n3n2)cc1
(84) COc1ccc(OC)c(C2C(C#N)=C(N)Oc3cc(C)oc(=O)c32)c1 (centres undefined)
(85) CNc1oc(-c2ccc(S(=O)(=O)N(C)C)cc2)nc1C#N
(86) COc1ccc(C2C3=C(CC(C)(C)CC3=O)OC3=C2C(=O)CC(C)(C)C3)cc1
(87) CC(SCc1ccccc1)C(=O)NCc1ccccn1 (centres undefined)
(88) O=C(c1ccc(-n2cccn2)cc1)N1CCN(c2ncccc2C(F)(F)F)CC1
entry no. | 81 | 82 | 83 | 84 | 85 | 86 | 87 | 88
GIV-Gai inh | · | 108 | 101 | · | 102 | 107 | 103 | 101
HCMV NEC inh | 2 | -13 | -19 | 2 | 5 | -6 | -15 | -18
Sa growth inh | 103 | 102 | 82 | 114 | · | · | 104 | 97
Sa growth inh second temp | 98 | 87 | 80 | 83 | · | · | 86 | 84
